Ecoli rRNA inh – selective bacterial rRNA inhibition in E. coli; E. coli WT GFP vs humanized-ribosome RFP mutants, fluorescence, 24 h; stronger effect = lower value; DMSO median 0, no signal -100; GFP signal change (wild-type ribosome), % (concentration not given with the values); 350,000 tested, 1.6% active; AID 720706;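 active = significant combined selectivity score with lowered wild-type GFP, culture density cut under 30%, mutant RFP and density less affected; inactive = any of these conditions unmet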; also: one replicate is shown; some compounds called inactive have numbers as strong as hits
FGF22 binding – binders of recombinant human FGF22 by thermal shift; Q9HCT0; SYPRO orange fluorescence; percent of sucrose octasulfate shift, DMSO zero; calls only at 9.99 µM; 340,000 tested, 1.5% active;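 active = melting point raised past a set limit in the mean and every replicate; three in four hits are not shown here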
Target sequence (Q9HCT0 whole entry, looked up): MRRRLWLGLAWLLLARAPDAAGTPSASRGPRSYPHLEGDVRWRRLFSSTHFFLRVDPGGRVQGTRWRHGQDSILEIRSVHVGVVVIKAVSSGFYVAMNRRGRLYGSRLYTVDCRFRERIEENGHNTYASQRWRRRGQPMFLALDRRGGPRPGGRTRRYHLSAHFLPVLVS
Ecoli rRNA inh OD600 – further read-out of Ecoli rRNA inh, marked with its call; OD600 change, %; measured here: OD600 growth;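 optical density of the mix in the first replicate; 0 = DMSO median and -100 = no signal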
Ecoli rRNA inh RFP – recorded beside Ecoli rRNA inh, whose call it bears; RFP signal change, %; measured here: RFP humanized mutant strains;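 first replicate; 0 = DMSO median and -100 = no signal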
Starred values were filed as active, the others as inactive; i = inactive; + = active, no number; & = joins results of further samples. Some of the compounds tested; the hit share may differ from the screen's.

Ecoli rRNA inh | mol | Ecoli rRNA inh OD600 | Ecoli rRNA inh RFP | FGF22 binding
-0.2 | Cc1noc(C)c1NC(=O)N(C)C[C@@H]1OCCCC[C@@H](C)Oc2ccc(NS(=O)(=O)c3cn(C)cn3)cc2C(=O)N([C@H](C)CO)C[C@H]1C | -3.8 | -3.0 | i
2.5 | COc1cccc(C(=O)N[C@H](C(=O)N2CCC[C@H]2C(=O)NC2CCCC2)c2ccccc2)c1 | -0.8 | 4.8 | i
-5.1 | COc1ccc(CN2CC3(CN(C(=O)Nc4cccc(F)c4)C3)c3c([nH]c4cc(OC)ccc34)[C@H]2CO)cc1 | 1.0 | 5.5 | i
-5.2 | O=C(c1ccc2c(c1)OCO2)N1CC[C@@H]2[C@@H](CO)Nc3ccc(C#Cc4ccccc4)cc3[C@@H]21 | -4.7 | 1.6 | i
5.5 | COc1ccc(C2CC(=O)C(c3ccc(Cl)cc3)=CN2Cc2ccccc2)cc1 (stereo unspecified) | 11.8 | 4.3 | i
-47.3 | CCN=C1NC(c2ccccc2)C(C(=O)OC)=C(C)N1Cc1ccc(C(F)(F)F)cc1 (stereo unspecified) | -80.5 | -18.7 | i
-2.8 | C[C@H]1CCCCO[C@H](CN(C)S(C)(=O)=O)[C@@H](C)CN([C@@H](C)CO)C(=O)c2cc(NS(C)(=O)=O)ccc2O1 | 0.9 | 0.0 | i
-4.0 | CN1C(=O)c2cc(NC(=O)Cc3ccccc3)ccc2OC[C@H]2O[C@@H](CC(=O)NCC3CC3)CC[C@@H]21 | -12.1 | 23.1 | i
1.2 | O=C(CC1CCCC1)N[C@@H](Cc1cccnc1)C(=O)N1CCC[C@H]1C(=O)NCCc1ccccc1Cl | -0.7 | 8.3 | i
-39.2 | Cc1cc(NC(=O)CCc2c[nH]c3ccccc23)ccc1Nc1cccnc1 | -68.2 | -6.6 | i
4.1 | c1ccc(COCc2ccccc2)cc1 | 9.8 | -0.2 | i
2.7 | CCCNC(=O)C[C@H]1CC[C@@H]2[C@H](COc3ccc(NC(=O)Cc4cccs4)cc3C(=O)N2C)O1 | 2.6 | -1.1 | i
1.7 | C[C@H](CO)N1C[C@H](C)[C@H](CN(C)C(=O)Nc2cccc3ccccc23)OCCCC[C@H](C)Oc2ccc(NC(=O)CCC(F)(F)F)cc2C1=O | 0.6 | 2.0 | i
6.8 | CC(C)C(=O)Nc1ccc2c(c1)C(=O)N(C)[C@@H]1CC[C@@H](CC(=O)NCCCN(C)C)O[C@H]1CO2 | 9.0 | -1.6 | i
-3.0&0.9 | CCCNC(=O)N1C[C@@H]2N[C@H](C1)C2c1ccc(-c2ccc(OC)cc2)cc1 (stereo partly specified) | -1.1&-3.9 | -2.0&0.2 | i
-9.4 | COc1ccccc1CNC(=O)C[C@@H]1CC[C@@H]2[C@@H](COc3ccc(NC(=O)Nc4ccc(F)c(F)c4)cc3C(=O)N2C)O1 | -10.3 | -1.7 | i
5.7 | COC(=O)C[C@H]1CC[C@H]2[C@@H](COc3ccc(NC(=O)c4cc(F)cc(F)c4)cc3C(=O)N2C)O1 | 4.6 | -1.1 | i
29.1 | NC(=O)c1ncn([C@@H]2O[C@H](C(=O)N3CCN(CC(=O)Nc4ccccn4)CC3)[C@@H](O)[C@H]2O)n1 | 7.9 | 4.4 | i
-19.5 | COc1ccc(-c2cccc3[nH]c4c(c23)CCN2C(=O)[C@H]3[C@H](C)ON(C)[C@H]3C[C@@H]42)cc1 | -16.6 | 2.2 | i
-1.1 | C[C@@H]1CCCCO[C@H](CN(C)C(=O)Nc2ccc3c(c2)OCO3)[C@H](C)CN([C@@H](C)CO)C(=O)c2cc(NC(=O)NC3CCCCC3)ccc2O1 | 4.4 | -0.6 | i
5.1 | C[C@H]1CCCCO[C@@H](CN(C)C(=O)c2ccncc2)[C@@H](C)CN([C@@H](C)CO)C(=O)c2cc(NC(=O)NC3CCCCC3)ccc2O1 | 4.1 | 2.6 | i
-2.8 | Cc1cc(Nc2cccc(C(F)(F)F)c2)cc(=O)n1-c1cccc(C(F)(F)F)c1 | -24.1 | 0.2 | i
36.9 | CN(C)CCCN1CC(=O)N2CCc3ccc(Br)cc3C2CC1=O (stereo unspecified) | 21.5 | -1.5 | i
1.2 | CCCC(=O)Nc1ccc2c(c1)C(=O)N(C)[C@H]1CC[C@@H](CC(=O)NCC(F)(F)F)O[C@@H]1CO2 | 3.3 | 0.9 | i
-2.8 | CNC(=O)C[C@@H]1CC[C@@H]2[C@@H](COc3ccc(NS(=O)(=O)c4ccc(F)cc4)cc3C(=O)N2C)O1 | -4.3 | -1.1 | i
4.3 | O=C(NCc1ccccc1)[C@H]1CCCN1C(=O)[C@@H]1CCCN1C(=O)c1ccc(Cl)cc1Cl | 5.9 | 7.0 | i
5.6 | C[C@@H]1CCCCO[C@H](CN(C)Cc2ccc3c(c2)OCO3)[C@@H](C)CN([C@@H](C)CO)C(=O)c2cc(NS(=O)(=O)c3cn(C)cn3)ccc2O1 | 5.3 | -0.4 | i
-11.1 | COc1ccc(C2O[C@@H](C)[C@@H]3C(=O)N4CCc5c([nH]c6ccccc56)[C@@H]4C[C@@H]3N2C)cc1 (stereo partly specified) | 3.1 | 6.5 | i
-1.8 | O=C(C[C@@H]1CC[C@H]2[C@@H](COC[C@H](O)CN2Cc2cccc(C(F)(F)F)c2)O1)NCCc1ccncc1 | 4.1 | -4.8 | i
-2.6 | C[C@H]1CN([C@@H](C)CO)C(=O)Cc2cc(N(C)C)ccc2O[C@H]1CN(C)Cc1ccc(C(F)(F)F)cc1 | 2.9 | -1.5 | i
-6.9 | O=C(c1ccccc1F)N1CC[C@@H]2[C@H](CO)Nc3ccc(C#Cc4ccc(F)cc4)cc3[C@@H]21 | -3.2 | -0.3 | i
1.1 | CN(C)C(=O)[C@@H]1[C@@H](CO)[C@@H]2Cn3c(ccc(-c4ccccc4)c3=O)[C@H]1N2Cc1ccccn1 | -3.4 | -1.7 | i
-4.5 | Cc1ccc(S(=O)(=O)Nc2ccc3c(c2)C(=O)N([C@@H](C)CO)C[C@@H](C)[C@@H](CN(C)Cc2ccccc2)OCCCC[C@H](C)O3)cc1 | -40.2 | 5.0 | i
1.4 | Cc1noc(C)c1NC(=O)N(C)C[C@H]1Oc2ccc(NS(C)(=O)=O)cc2CC(=O)N([C@H](C)CO)C[C@@H]1C | 1.8 | -0.4 | i
35.8 | O=C(N[C@H](Cc1ccccc1)C(=O)N1CCN(CC(=O)N2CCCC2)CC1)[C@H]1O[C@@H](n2ccc(=O)[nH]c2=O)[C@H](O)[C@@H]1O | 23.6 | 4.0 | i
-5.4 | CCNC(=O)C[C@H]1CC[C@@H]2[C@@H](COc3ccc(NC(=O)c4cccc(C(F)(F)F)c4)cc3C(=O)N2C)O1 | -7.7 | -2.6 | i
0.2 | COc1ccc(C2CC(=O)C(c3cccc(Cl)c3)=CN2Cc2ccccc2)cc1 (stereo unspecified) | -4.5 | 0.5 | i
3.1 | CCCNC(=O)Nc1ccc2c(c1)C(=O)N(C)[C@H]1CC[C@@H](CC(=O)O)O[C@@H]1CO2 | 6.8 | -3.4 | i
-2.1 | COc1ccc(CN(C)C[C@@H]2OCCCC[C@@H](C)Oc3ccc(NS(=O)(=O)c4c(C)noc4C)cc3C(=O)N([C@H](C)CO)C[C@H]2C)cc1 | -0.9 | 1.1 | i
-5.1 | O=C(C[C@@H]1CC[C@H]2[C@@H](COC[C@H](O)CN2C(=O)Nc2ccc3c(c2)OCO3)O1)N1CCN(c2ccccc2)CC1 | -3.1 | -1.9 | i

Rewritten with each value named: 4 of the compounds above
> Cc1ccc(S(=O)(=O)Nc2ccc3c(c2)C(=O)N([C@@H](C)CO)C[C@@H](C)[C@@H](CN(C)Cc2ccccc2)OCCCC[C@H](C)O3)cc1
  Ecoli rRNA inh: -4.5; Ecoli rRNA inh OD600: -40.2; Ecoli rRNA inh RFP: 5.0; FGF22 binding: i

> O=C(C[C@@H]1CC[C@H]2[C@@H](COC[C@H](O)CN2C(=O)Nc2ccc3c(c2)OCO3)O1)N1CCN(c2ccccc2)CC1
  Ecoli rRNA inh: -5.1; Ecoli rRNA inh OD600: -3.1; Ecoli rRNA inh RFP: -1.9; FGF22 binding: i

> COc1ccc(CN(C)C[C@@H]2OCCCC[C@@H](C)Oc3ccc(NS(=O)(=O)c4c(C)noc4C)cc3C(=O)N([C@H](C)CO)C[C@H]2C)cc1
  Ecoli rRNA inh: -2.1; Ecoli rRNA inh OD600: -0.9; Ecoli rRNA inh RFP: 1.1; FGF22 binding: i

> O=C(N[C@H](Cc1ccccc1)C(=O)N1CCN(CC(=O)N2CCCC2)CC1)[C@H]1O[C@@H](n2ccc(=O)[nH]c2=O)[C@H](O)[C@@H]1O
  Ecoli rRNA inh: 35.8; Ecoli rRNA inh OD600: 23.6; Ecoli rRNA inh RFP: 4.0; FGF22 binding: i

Next structures follow.
Ecoli rRNA inh | mol | Ecoli rRNA inh OD600 | Ecoli rRNA inh RFP | FGF22 binding
0.0 | C/C=C/c1ccc2c(c1)O[C@@H](CN(C)C(=O)c1cnccn1)[C@@H](C)CN([C@H](C)CO)S2(=O)=O | -0.1 | -2.1 | i
-2.0 | C[C@H](CO)N1C[C@H](C)[C@@H](CN(C)Cc2ccc(C(F)(F)F)cc2)OCCCC[C@H](C)Oc2ccc(NS(C)(=O)=O)cc2C1=O | -9.2 | -0.2 | i
3.3 | CCCNC(=O)C[C@H]1CC[C@@H]2[C@H](COc3ccc(NC(=O)c4ccc(OC)cc4)cc3C(=O)N2C)O1 | 5.4 | 2.2 | i
-9.4 | CN1C(=O)c2cc(NC(=O)c3cccc(F)c3)ccc2OC[C@@H]2O[C@H](CC(=O)NCc3ccccc3)CC[C@H]21 | -20.8 | 3.9 | i
-3.9 | C[C@@H]1CCCCO[C@H](CN(C)S(C)(=O)=O)[C@@H](C)CN([C@@H](C)CO)C(=O)c2cc(NC(=O)Nc3ccc(F)cc3)ccc2O1 | -4.8 | -0.8 | i
3.6 | CCCNC(=O)C[C@H]1C[C@@H]2c3cc(NC(=O)CN(C)C)ccc3O[C@@H]2[C@H](CO)O1 | 0.8 | -3.1 | i
3.4 | COCC(=O)Nc1ccc2c(c1)C(=O)N(C)[C@H]1CC[C@H](CC(=O)Nc3cn(C)nc3C)O[C@H]1CO2 | 1.0 | -2.1 | i
2.8 | COc1ccc(S(=O)(=O)N(C)C[C@@H]2OCCCC[C@H](C)Oc3ccc(NC(=O)Nc4ccccc4)cc3C(=O)N([C@@H](C)CO)C[C@@H]2C)cc1 | 1.8 | -0.2 | i
8.6 | NC(=O)[C@@H]1CCCN1C(=O)[C@H]1O[C@@H](n2ccc(N)nc2=O)[C@H](O)[C@@H]1O | 13.4 | 1.4 | i
-4.5 | COc1ccc2c3c(n(C)c2c1)[C@H](CO)N(C(=O)Nc1ccc(F)cc1)CC31CCN(C(=O)NC(C)C)CC1 | -8.5 | 10.1 | i
5.2 | COc1ccc(CN(C)C[C@@H]2OCCCC[C@@H](C)Oc3ccc(NS(=O)(=O)c4c(C)noc4C)cc3C(=O)N([C@H](C)CO)C[C@@H]2C)cc1 | 6.2 | 2.3 | i
-40.7 | CCN(C(=O)CCc1cn(CC)c2ccccc12)c1ccc(Oc2cccnc2)cc1 | -71.2 | -7.0 | i
-26.4 | CC(C)C#Cc1ccc2c(c1)O[C@@H](CN(C)Cc1ccncc1)[C@H](C)CN([C@@H](C)CO)S2(=O)=O | -47.4 | 15.9 | i
4.3 | C[C@@H]1CN([C@H](C)CO)C(=O)Cc2cc(NC(=O)Nc3ccc4c(c3)OCO4)ccc2O[C@@H]1CN(C)C(=O)Nc1ccccc1 | 6.0 | -1.2 | i
0.0 | CN1C(=O)c2cc(NC(=O)C3CC3)ccc2OC[C@H]2O[C@@H](CC(=O)NCc3cccc(F)c3)CC[C@H]21 | 3.4 | 0.0 | i
-4.8 | COc1ccc(S(=O)(=O)N(C)C[C@@H]2Oc3c(NS(=O)(=O)c4ccc(Cl)cc4)cccc3C(=O)N([C@H](C)CO)C[C@@H]2C)cc1 | -2.6 | 1.8 | i
-0.1 | COc1ccc(NC(=O)Nc2cccc3c2O[C@H](CN(C)S(=O)(=O)c2ccc(F)cc2)[C@H](C)CN([C@H](C)CO)C3=O)cc1 | -3.7 | -1.7 | i
-16.2 | C[C@H](CO)N1C[C@H](C)[C@@H](CN(C)CC2CCCCC2)OCCCC[C@H](C)Oc2ccc(NS(=O)(=O)c3ccc(Cl)cc3)cc2C1=O | -33.3 | 9.1 | i
1.8 | C[C@H]1CN([C@@H](C)CO)C(=O)Cc2cc(NC(=O)Nc3cccc4ccccc34)ccc2O[C@@H]1CN(C)S(=O)(=O)c1cccs1 | 2.0 | -0.8 | i
-20.1 | CCC(c1nc2ccccc2[nH]1)n1c(-c2ccc3cc[nH]c3c2)nc2ccccc21 (stereo unspecified) | -22.6 | 1.7 | +
4.0 | CC=Cc1ccc2n(c1=O)C[C@H]1[C@H](CO)[C@@H](C(=O)NC3CCC3)N(CC)[C@@H]21 (mixture of isomers) | 0.8 | -1.3 | i
3.8 | C[C@H](CO)N1C[C@H](C)[C@H](CN(C)S(=O)(=O)c2ccc(Cl)cc2)Oc2ccc(NS(=O)(=O)c3ccccc3)cc2CC1=O | -5.9 | 0.5 | i
8.0&7.2 | CN(C)C(=O)c1ccc(-c2ccc(C3[C@@H]4CN(C(=O)C5CCC5)C[C@H]3N4)cc2)cc1 (stereo partly specified) | 14.2&10.3 | -1.5&2.6 | i

Bioassay records deposited in PubChem BioAssay by Broad Institute.
